Mtb hypoxia rep – Mtb hypoxia fluorescent reporter inhibition; 300,000 tested, 0.1% active; AID 1159583; M. tuberculosis hypoxia-regulated fluorescent reporter, fluorescence; fluorescence inhibition, % (concentration not given with the values);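 active = 35 to 45% if threefold the growth effect, above 45% if 1.5-fold the growth effect; inactive = the rest, general growth blockers included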;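 also: wells of about 50 µL received 100 nL stock; 0% = vehicle wells and 100% = reference inhibitor wells; whole bacteria with a GFP reporter of the hypoxia response; strong numbers were not always called active; many hits fall short of the cut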
Autofluor counter – compound fluorescence in toxin protease inhibitor counterscreen; fluorescence intensity (concentration not given with the values); 360,000 tested, 3.1% active; compound autofluorescence counterscreen, microsphere flow cytometry; active compounds read high;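 active = at least 3 SD above the mean of all compounds, about 16000 in these data; inconclusive = too few beads counted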;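 also: 100 nL of 1 mM stock went into each well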
ugtP null kill – compounds lethal to S. aureus RN4220 ugtP deletion mutant; OD600 growth, 16 h; some inactives read as strong as hits; AID 1259309; growth inhibition, % (test concentration not listed); 330,000 tested, 0.54% active;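 active = z-score under -3 and OD600 up to 0.15 on both plates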;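 also: plate controls were untreated wells for no effect and antibiotic for full effect; wells of about 80 µL received 100 nL stock; the first replicate is given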
RN4220 kill – kills Staphylococcus aureus RN4220; S. aureus RN4220 growth, OD600, 16 h; inhibition, % (test concentration not listed); 330,000 tested, 0.33% active;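 active = z-score of -3 or lower and OD600 up to 0.18 on both plates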;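 also: plate controls were untreated cells for no effect and reference antibiotic for full effect; stock transfer was 100 nL into about 80 µL; one replicate is shown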
BJeLR viability – BJeLR cell viability loss. AID 1554. 300,000 tested, 0.17% active. BJeLR (HRASV12) viability, CellTiter-Glo ATP luminescence, 48 h; reference of the scale not given here. inhibition, % (concentration not given with the values);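 active = replicate mean above 50%; inconclusive = above 50% but judged a plate artefact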;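 also: 50 nL library stock added to about 25 µL; numbers are from one replicate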
PrP 5UTR inh – inhibition of PrP 5' UTR reporter expression; cell-based PrP 5' UTR mRNA reporter, plate reader; inhibition, % (no concentration beside the values); 340,000 tested, 0.35% active; AID 488862;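 active = every replicate at 50% or more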;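 also: 0 = median of the neutral control wells; tested in H4 reporter cells; numbers are from one replicate; inactives centre near -14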
Mtb hypoxia rep growth – also measured in Mtb hypoxia rep; calls as there; growth inhibition, %; measured here: M. tuberculosis growth (absorbance);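 0% = vehicle and 100% = reference antibiotic; read after six days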
* marks the source's active call; other numbers are inactive results; u = inconclusive; x = no result given.

SMILES	Mtb hypoxia rep	Mtb hypoxia rep growth	Autofluor counter	ugtP null kill	RN4220 kill	BJeLR viability	PrP 5UTR inh
CC(NC(=O)c1cccnc1)C(c1ccccc1)N1CCN(C)CC1 (stereo not drawn)	12.3	1.9	11067	-1.8	7.3	-7.6	x
COc1ccc(Cc2nc3ccc(C(=O)N4CCCN(C=O)CC4)cc3o2)cc1	0.0	-20.9	6293	-0.7	0.1	5.6	-17.3
CC(=O)Nc1ccc(NC(=O)CSc2nnc(-c3ccc(NS(C)(=O)=O)cc3)n2C)cc1C	8.1	3.0	4970	4.5	4.6	0.7	-6.8
CCCN(C(=O)CCOc1ccc(C(C)(C)C)cc1)c1c(N)n(Cc2ccccc2)c(=O)[nH]c1=O	0.0	-1.0	5180	12.4	8.7	1.5	-6.2
O=C(COC(=O)COc1ccc(Br)cc1)Nc1cccnc1Cl	3.8	0.4	1976	0.5	1.1	-8.5	-8.8
Oc1ccccc1C=Nn1cnnc1	-19.2	-9.0	x	-1.4	5.3	x	x
COc1ccc(C2=NOC(Cn3nc(C(=O)NCc4cccs4)cc3-c3ccccc3)C2)cc1 (stereo not drawn)	x	x	4060	x	x	8.7	-1.5
c1ccc(CCN2CCN(c3ncnc4c3cnn4-c3ccccc3)CC2)cc1	8.5	21.8	7827	27.4	2.8	5.6	-20.4
Cc1cc(C(=O)N/N=C\c2ccc(COc3ccc([N+](=O)[O-])cc3)o2)ccc1[N+](=O)[O-]	x	x	3073	x	x	0.7	-13.2
CN1CCN(C(=O)COc2ccc(S(=O)(=O)N(C)Cc3ccccc3)cc2)CC1	5.3	5.3	8952	6.7	4.9	-4.4	-16.3
O=c1[nH]c(NN=Cc2ccccc2Br)nnc1-c1ccccc1	7.2	6.1	x	10.9	20.3	x	x
CCCCn1c(NCc2ccc3c(c2)OCO3)nc2ccccc21	20.2	-21.1	2450	-1.3	11.4	-9.6	-10.8
Cc1cc(C)n2ncc(C(=O)NCc3ccccc3)c2n1	x	x	3437	7.9	5.2	-0.9	0.1
COc1cccc(CN(C(=O)c2cccc(OC)c2)C2CCS(=O)(=O)C2)c1 (stereo not drawn)	9.5	16.0	4904	2.2	3.4	9.1	-8.9
Cc1ccccc1NC(=S)N1CCOCC1	-6.0	-3.7	2011	1.4	1.4	-5.9	6.1
O=C(Nc1cc(C(F)(F)F)ccc1N1CCCCC1)c1ccco1	x	x	5040	-8.3	3.6	-10.6	-7.7
O=C(O)CSc1ncnc2c1sc1nc(-c3ccccc3)c3c(c12)CCC3	-0.7	-2.6	x	22.6	18.1	-1.5	-8.2
O=C(c1ccc(Cl)c(NC2=NC3CS(=O)(=O)CC3S2)c1)N1CCN(c2ccc(F)cc2)CC1 (stereo not drawn)	4.1	7.6	3985	7.3	2.7	2.3	-5.3
CCC(C)n1c(=S)[nH]c2c(sc3ccc([N+](=O)[O-])cc32)c1=O (stereo not drawn)	-6.6	2.9	10217	44.7	52.7	13.7	-9.9
Cc1ccc(NC(=O)Cc2n[nH]c(=S)n2C)cc1	5.1	11.3	4094	3.6	9.4	5.0	49.9
O=C(NC1CCCN(c2ccc(C(F)(F)F)cn2)C1)c1ccncc1 (stereo not drawn)	12.4	3.8	5492	1.2	0.1	-2.8	-7.4
Cn1c(COc2ccccc2)nnc1SCC(=O)NC1CCCC1	-14.4	-16.8	5474	5.3	4.7	-10.3	-6.5
Cn1c(=O)n(C)c2cc(NC(=O)COc3ccccc3)ccc21	9.3	6.5	3220	5.8	2.1	-18.2	-15.3
CN(C)c1ccc(C=NN2CCCCCC2)cc1	13.6	18.6	3855	-9.9	6.1	x	-95.4
COc1cc(-c2nc(S(=O)(=O)c3ccc(C)cc3)c(N3CCOCC3)o2)cc(OC)c1OC	x	x	2560	x	x	-2.7	0.5
Cc1cc(C)cc(-n2c(N)c(C(=O)Nc3c(C)n(C)n(-c4ccccc4)c3=O)c3nc4ccccc4nc32)c1	-9.4	-7.2	8721	0.8	0.3	13.0	-29.3
Fc1ccccc1C=NNc1cc(N2CCCCC2)ncn1	4.0	2.0	x	11.2	1.9	x	x
CC(C)(C)NC(=O)C=Cc1ccc(C(F)(F)F)cc1	-1.1	-2.4	x	-0.4	4.7	x	x
COCC(C)n1c(C)cc(C(=O)COC(=O)C2=NN(c3ccccc3)C(=O)CC2)c1C (stereo not drawn)	9.0	18.7	4508	3.7	7.5	1.4	6.3
O=C(N/N=C/c1ccc(OCC2COCCO2)cc1)c1ccc(Br)cc1 (stereo not drawn)	x	x	3963	x	x	-0.8	-27.5

Looked up above.
Fc1ccccc1C=NNc1cc(N2CCCCC2)ncn1 @ Mtb hypoxia rep = 4.0
O=C(c1ccc(Cl)c(NC2=NC3CS(=O)(=O)CC3S2)c1)N1CCN(c2ccc(F)cc2)CC1 (stereo not drawn) @ Autofluor counter = 3985

(next part)
SMILES	Mtb hypoxia rep	Mtb hypoxia rep growth	Autofluor counter	ugtP null kill	RN4220 kill	BJeLR viability	PrP 5UTR inh
CC(C)(C)C(=O)Nc1nc2c(c(=O)[nH]1)CCCC2	-4.8	-1.8	3605	7.4	4.0	7.2	-13.9
Cc1cccc(-n2c(C)cc(C=NNC(N)=S)c2C)c1	x	x	x	13.6	4.8	x	x
CC(=NO)c1ccc2c3ccccc3n(C)c2c1	-4.4	8.1	x	6.5	-5.1	x	x
CCN(CC)CCN1C(=O)C2C(C(=O)Nc3cccc(SC)c3)C3C=CC2(O3)C1C(=O)NC1CCCC(C)C1C (stereo not drawn)	4.3	3.6	4087	1.5	0.8	8.1	-18.6
O=C(NCCCn1ccnc1)C1CCCN(S(=O)(=O)c2ccc(F)cc2)C1 (stereo not drawn)	7.6	2.1	3685	2.5	2.5	-11.3	-0.6
COc1ccc(Br)cc1CNC(=O)CCC(=O)N1CCSc2ccccc21	5.0	2.6	5894	7.9	6.8	-4.8	-21.7
CCOc1ccc(N(CC(=O)Nc2ccc(C)c(Cl)c2)S(C)(=O)=O)cc1	-6.9	-6.4	4297	-10.2	1.5	1.0	-22.4
O=C(COC(=O)C1CCCN1C(=O)C12CC3CC(CC(C3)C1)C2)c1ccc(Br)cc1 (stereo not drawn)	5.3	2.5	2666	-18.7	1.2	-5.4	-32.1
C(=NN(Cc1ccccc1)c1ccccc1)c1ccco1	-1.7	-4.1	x	3.0	15.6	x	x
CSc1cccc(CN2CCCC(CNC(=O)c3ccc(F)cc3)C2)c1 (stereo not drawn)	6.3	8.3	7829	11.1	1.9	-3.7	-35.6
COc1cc(C2C=C(C34CC5CC(CC(C5)C3)C4)NC(=S)N2)cc(OC)c1OC (stereo not drawn)	-0.3	2.2	3147	1.4	1.7	-2.8	-7.4
CC1(C)NC(=O)N(CC(O)COc2ccccc2-c2ccccc2)C1=O (stereo not drawn)	x	x	4106	2.2	2.8	-5.1	-13.3
CCOC(=O)CNC(=O)CSc1nnc(COc2ccc(Cl)cc2)n1CC	x	x	4519	1.7	0.2	0.5	-5.8
COc1cccc(C(Nc2ccccn2)c2oc(CO)cc(=O)c2O)c1 (stereo not drawn)	12.3	8.1	4401	7.5	2.3	8.0	-9.5
COc1ccc(S(=O)(=O)N2CCCCC2)cc1NC(=O)c1ccc(C)cc1	4.3	-2.7	8332	2.3	3.4	x	-22.7
COc1ccc2c(c1)[nH]c1c(=O)n(N=Cc3ccc(OC)c(CN4CCCC4)c3)cnc12	10.1	15.4	x	9.8	1.0	x	x
CNS(=O)(=O)c1cn(CC(=O)N(C)Cc2ccccc2)cc1S(=O)(=O)NC	-5.7	-1.8	3915	0.7	2.3	6.2	-17.3
COc1ccc(OC)c(NC(=O)CSc2n[nH]c(-c3cccnc3)n2)c1	12.7	8.6	3480	16.8	4.9	-12.4	-16.0
COc1cccc(CC(=O)OCc2csc(CC(=O)Nc3ccccc3C)n2)c1	2.9	-6.4	5711	1.0	-0.1	x	x
CCNC(=S)NNC(=O)CSc1nc2ccccc2n1C	2.5	-4.5	3605	0.7	1.8	-2.0	-31.2
O=C(CSc1nc2ccccc2o1)Nc1ccc(N2CCOCC2)c(Cl)c1	11.0	5.3	9905	-3.3	2.2	9.4	-71.3
COC(=O)CC1(c2cccc3ccccc23)C(=O)c2ccccc2C1=O	x	x	4161	4.8	5.1	8.1	-14.4
O=[N+]([O-])c1ccc(N2CCN(c3ccccc3Cl)CC2)cn1	0.9	13.1	3592	4.9	-0.4	3.7	-2.3
CCOc1ccc(S(=O)(=O)N2CCN(Cc3ccc4c(c3)OCO4)CC2)cc1Cl	-11.6	-2.3	5982	2.8	-9.6	-2.5	-31.4
COC(=O)[C@]1(Cc2ccccc2)N[C@H](CN(C)S(=O)(=O)c2ccc(C)cc2)[C@@H]2C(=O)N(Cc3ccccc3)C(=O)[C@@H]21	-12.1	2.4	3740	-5.2	3.0	x	-11.5
N#C/C(=C/c1ccc(-c2ccc(Br)cc2)o1)C(=O)NC1CCCCC1	0.5	4.7	8162	-9.7	-8.0	-4.7	-27.9
Cc1cccn2c(=O)c(C=O)c(NCc3ccccc3)nc12	14.7	3.5	x	-2.9	5.9	-6.6	x
COc1ccc(NS(=O)(=O)c2cccc(C(=O)NCc3ccccn3)c2)cc1	4.9	7.9	x	3.3	5.3	0.2	-77.5
CCOc1cc2[nH]c(=S)n(CCCC(=O)NCc3ccccn3)c(=O)c2cc1OCC	3.0	5.9	6280	7.6	1.7	6.5	-27.0
COc1cc(C(Nc2ccc(S(=O)(=O)N3CCC(C)CC3)cc2)C(=O)NCC2CCCO2)cc(OC)c1OC (stereo not drawn)	10.7	12.0	2440	11.8	5.7	5.3	-32.1
Cc1ccn(C(=O)c2ccc(NC(=O)CC(C)C)cc2)n1	x	x	2026	x	x	0.5	9.4
COC(=O)C1=C(c2ccccc2)CC2CCC1N2C(=O)N1CCC(C)CC1 (stereo not drawn)	12.7	4.5	x	2.9	7.6	x	x
COn1c(-c2ccccc2)nc2ccc(Cl)cc21	x	x	u	21.1	8.2	1.9	-48.1
COC(=O)CSc1ccc2nnc(CCNS(=O)(=O)c3ccccc3)n2n1	8.9	9.4	4882	8.4	-1.7	1.0	-29.0
CCC(C)=NOc1nc(C)cc(C)n1	-5.6	-10.7	x	4.9	-1.5	x	x
O=C(/C=C/c1cccc(F)c1)OCC(=O)N1CCCC1	3.3	0.1	3008	5.7	3.2	x	-15.5
O=C(Nc1ccc(S(=O)(=O)NCc2ccco2)cc1)c1ccc2ccccc2n1	4.6	-1.7	4269	-12.7	1.6	-13.9	-34.7
O=C(O)CCC(=O)N1N=C(c2ccc(Br)cc2)CC1c1ccc(Br)cc1 (stereo not drawn)	x	x	3694	x	x	2.1	-29.9
C=C1C(=O)O[C@@]23C1CCC(C)C2CC[C@@]1(C)OC31 (stereo partly drawn)	25.3	9.4	x	0.0	6.8	x	x
CC(=O)c1c(C)n(C)c2ccc(OC(=O)c3ccc([N+](=O)[O-])cc3)cc12	8.7	7.3	2812	-1.2	2.8	0.9	-10.4
N#Cc1ccc(OCc2nnc(SCC(=O)N3CCCc4ccccc43)n2-c2ccccc2)cc1	3.4	1.1	3559	8.6	4.7	-7.4	-2.7
Cn1c(=O)c2[nH]c(CCCc3nc4ccccc4[nH]3)nc2n(C)c1=O	7.7	7.0	3801	4.7	5.5	x	-14.2
COC(=O)c1cc(C(=O)OCC(=O)Nc2ccc(N3CCOCC3)cc2)cc([N+](=O)[O-])c1	10.9	8.1	3826	2.7	2.3	x	1.7
COc1ccc(C2(C(=O)Nc3cc(C)on3)CCOCC2)cc1	x	x	4738	4.0	-2.1	-1.2	-2.9
CCOC(=O)c1cc2c(=O)n3ccccc3nc2n(CCOC)c1=NC(=O)c1ccncc1	0.0	21.8	u	-8.1	-1.9	5.3	1.2
Cc1nc(NCCc2ccc(F)cc2)c2nnn(Cc3ccccc3)c2n1	x	x	4224	x	x	-3.3	-11.3

As a working copy, four of the compounds above.
SMILES	Mtb hypoxia rep	Mtb hypoxia rep growth	Autofluor counter	ugtP null kill	RN4220 kill	BJeLR viability	PrP 5UTR inh
COC(=O)c1cc(C(=O)OCC(=O)Nc2ccc(N3CCOCC3)cc2)cc([N+](=O)[O-])c1	10.9	8.1	3826	2.7	2.3	x	1.7
COc1ccc(C2(C(=O)Nc3cc(C)on3)CCOCC2)cc1	x	x	4738	4.0	-2.1	-1.2	-2.9
CCOC(=O)c1cc2c(=O)n3ccccc3nc2n(CCOC)c1=NC(=O)c1ccncc1	0.0	21.8	u	-8.1	-1.9	5.3	1.2
Cc1nc(NCCc2ccc(F)cc2)c2nnn(Cc3ccccc3)c2n1	x	x	4224	x	x	-3.3	-11.3

Bioassay records as filed in PubChem.
